# Yeast UUG start: alters start codon recognition fidelity in yeast | hit rate 0.13% among 350,000 | S. cerevisiae UUG-firefly luciferase reporter, luminescence/redox ratio | activity score, % at 18.7 µM;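 active means replicate mean at a twofold rise or more, about +100% in these data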;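 further: firefly luciferase made from a UUG start codon reports start codon fidelity; reporter light over untreated wells divided by growth signal over untreated wells; some hits fall short of that in this replicate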
# Env fusion inh: inhibitors of HIV Env-mediated cell fusion | HeLa-JRFL Env/CEM21 cell fusion, luciferase | hit rate 1.1% among 360,000 | inhibition, % at 12.3 µM;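 active means mean replicate inhibition score of at least 50 and every replicate individually at or above 50; inconclusive means only one of the two criteria met; inactive means mean below 50 and not all replicates reaching 50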;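 further: 0% = plate neutral controls and 100% = maraviroc near 300 nM; one replicate is shown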
# PABP FP inh: PABP-poly(A) binding inhibition; inhibition, % at 35 µM; PABP-poly(A) RNA binding, fluorescence polarization; P11940; hit rate 1% among 290,000; AID 2014;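 active means 50% or more with normal probe brightness, or confirmed in later tests; inconclusive means above 50% with abnormal brightness, or retests that disagree; inactive means below 50% or failed in later tests; about a fifth of its hits are not listed in these tables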;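 further: calls also rest on retests at 20 µM and on dose response follow-up; controls were probe without protein and protein plus probe with vehicle; some compounds called inactive have numbers as strong as hits; many hits fall short of the cut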
# CSC inhib: cancer stem cell inhibition | cancer stem cell-like cells viability, luminescence | hit rate 1.1% among 300,000 | AID 2717 | inhibition, % at 7.5 µM;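 active means mean at 75% or more and at least half the replicates too; inconclusive means mean and replicates disagree; tested in HMLE shEcad cells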;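 further: 0% = median of negative and 100% = median of positive control wells; the first replicate is given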
# Rce1 inh: blocks yeast Ras-converting enzyme | calls only | hit rate 0.27% among 290,000 | yeast membranes, quenched prenylated peptide cleavage fluorescence | Q03530;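 active means fall in fluorescence gain of 50% or more versus controls, with final raw signal at or below 3038400; inconclusive means same 50% fall but final raw signal above 3038400; inactive means fall in fluorescence gain under 50%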;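 further: plate controls were neutral control wells for no effect and wells lacking membranes for full effect; tested at 10 µM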
# Target sequence (Q03530 whole entry, looked up): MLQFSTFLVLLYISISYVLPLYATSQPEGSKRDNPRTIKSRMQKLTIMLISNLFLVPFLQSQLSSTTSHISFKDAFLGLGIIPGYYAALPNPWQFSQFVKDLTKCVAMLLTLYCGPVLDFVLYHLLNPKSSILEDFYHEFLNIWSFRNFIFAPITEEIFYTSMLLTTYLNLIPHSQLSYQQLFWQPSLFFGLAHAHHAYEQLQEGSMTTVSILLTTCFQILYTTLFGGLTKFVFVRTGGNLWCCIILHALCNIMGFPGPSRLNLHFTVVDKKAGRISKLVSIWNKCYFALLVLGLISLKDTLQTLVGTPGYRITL
# eIF4H inh: inhibitors of RNA binding by human eIF4H | hit rate 0.94% among 290,000 | eIF4H fluorescence polarization binding assay | inhibition, % at 35 µM | Q15056 | AID 2012;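 active means 50% or more with normal probe brightness, or confirmed in later tests; inconclusive means above 50% with abnormal brightness, or retests that disagree; inactive means below 50% or failed in later tests; about a fifth of its hits are not listed in these tables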;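 further: calls also rest on retests at 20 µM and on dose response follow-up; 0% = protein and probe with vehicle and 100% = probe without protein; strong numbers were not always called active; many hits fall short of the cut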
# MT1-MMP act inh: blocks activation of human MT1-MMP; hit rate 0.061% among 360,000; HT1080 RFP-PRO-GFP cells, GFP/RFP ratio fluorescence, overnight; percent of plate control window, DMSO zero; GFP/RFP ratio change, % at 20 µM; P50281; AID 651647;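 active means GFP/RFP ratio change of at least 30% with cell ATP level not reduced by more than half and red fluorescence within 50% of control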; further: strong numbers were not always called active
#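 system = RFP-PRO-GFP reporter HT1080 cells | dosing = 20 µM single dose, 1% DMSO | timing = overnight cell settling, then overnight compound exposure, 37 °C, 5% CO2 | read-out basis = GFP/RFP fluorescence ratio | controls = DMSO and RFP-L50D-GFP cell wells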
# eIF4H inh retest: also measured in eIF4H inh; calls as there; inhibition, %; compound at 20 µM; confirmation average;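 mean of two retest wells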
# PABP FP inh retest: second read-out of PABP FP inh, no call of its own (marks repeat the call); inhibition, %; compound at 20 µM; confirmation repeats;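 mean of two retest wells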
# MT1-MMP act inh RFP: also measured in MT1-MMP act inh; calls as there; RFP signal change, %; measured here: RFP expression control read;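 0 = vehicle wells; hits needed this value within 50% of zero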
# Starred values were filed as active, the others as inactive; i = inactive; ? = inconclusive; . = no result given; & = joins results of further samples.
SMILES,Yeast UUG start,Env fusion inh,PABP FP inh,CSC inhib,Rce1 inh,eIF4H inh,MT1-MMP act inh,MT1-MMP act inh RFP,others
COC(=O)C(NC(=O)CN1C(=O)c2ccccc2C1=O)c1ccc(O)c(OC)c1 (stereo unspecified),-3.0,-3.4,-8.4,3.7,i,2.6,-2.7,-2.4,
CC(=O)Nc1ccc(C(=O)CSc2nnc(-c3ccc(O)cc3)n2CC2CCCO2)cc1 (stereo unspecified),12.5,.,-3.6,-3.0,i,1.1,15.1,-2.0,
CCc1ccc(C(=O)COc2ccc(NC(C)=O)cc2)cc1,1.6,-30.8,-4.7,13.7,i,-1.1,6.2,4.6,
CCO[C@@H]1OC(C(N)=O)=C[C@H](c2coc3ccccc3c2=O)[C@H]1CCCO,-16.6,8.7,-12.8,-4.2,i,-8.8,11.9,6.0,
O=C(CSc1nnc2ccc(-c3ccc(Br)cc3)nn12)NCC1CCCO1 (stereo unspecified),.,20.2,.,4.2,i,.,1.6,0.2,
CNC(=S)N1N=C(c2ccc(C)cc2)CC1c1ccc(OC)cc1 (stereo unspecified),-14.4,.,0.3,-5.9,i,-7.5,0.5,-5.1,
Cc1cc(C)cc(NC(=S)NCC2CCCO2)c1 (stereo unspecified),-15.0,.,8.0,0.2,i,-15.3,-0.3,1.1,
CC(CCc1ccccc1)NC(=O)COC(=O)c1ccc([N+](=O)[O-])cc1 (stereo unspecified),-35.7,-41.4,3.4,-7.8,i,-10.2,2.9,6.5,
O=C(N/N=C/c1ccc([N+](=O)[O-])o1)c1cc2c(ccc3ccccc32)o1,.,-20.3,31.6*,.,.,75.5,-8.8,-6.0,eIF4H inh retest=-3.4;PABP FP inh retest=85.6*
O=C(NNc1cccc(Cl)n1)C1CC1,-18.0,11.1,-16.4,-9.0,i,-6.7,-2.4,0.9,
CCOC(=O)C1=C(N)N2C(=O)CSC2=C(C(=O)OC)C1,-7.0,.,3.1,8.4,i,-5.8,-2.4,2.0,
O=C1CCCN1CCC12CC3CC(CC(C3)C1)C2,-21.7,7.0,3.5,-15.5,i,-6.2,1.6,-2.2,
Cc1cc(NC(=O)c2ccccc2F)n(C(C)(C)C)n1,-11.5,0.1,-1.8,-0.3,i,-4.4,-1.4,-2.5,
Cc1cccc(S(=O)(=O)c2c(N)n(/N=C/c3ccco3)c3nc4ccccc4nc23)c1,-17.9,?,32.4,33.7,i,19.5,-1.3,0.2,
Cc1ncc(CN2CCN(CCc3ccccc3)C(CCO)C2)s1 (stereo unspecified),-12.8,7.5,-13.9,-7.0,i,-7.3,-3.9,0.6,
Cc1ccc(S(=O)(=O)CCC(=O)NCCN2C(=O)S/C(=C/c3ccc(F)cc3)C2=O)cc1,.,.,-7.2,1.0,i,-5.4,4.8,1.6,
O=C(N/N=C/c1ccc2c(c1)OCCO2)c1ccncc1,-5.1,2.1,1.7,-22.2,i,-16.7,2.1,1.8,
N#Cc1nc(COc2cccc(Cl)c2)oc1N1CCCC1,-12.7,0.3,-5.6,-2.9,i,-3.3,-0.6,-0.1,
CSc1nc2ccccc2cc1/C=C(\C#N)c1cccc(C)c1,-14.3,.,9.7,-8.5,i,11.2,-6.9,-15.2,
CCOC(=O)[C@H]1[C@H]2COc3ccc(Br)cc3[C@@H]2N2C(=O)CN(Cc3ccc(Cl)cc3)C(=O)[C@@]12C,4.1,-4.4,.,12.0,.,.,-1.0,-3.8,
COc1cccc(CNC(=O)Cn2c(=O)oc3ccccc32)c1OC,-1.0,22.6,26.9,-9.1,i,-1.8,2.1,3.4,
O=C(CC(Cc1ccccc1)C(=O)O)Nc1ccc(F)cc1 (stereo unspecified),0.8,7.5,-1.9,-15.8,i,-1.7,-1.9,5.2,
CN(Cc1ccccc1)c1nc2c(c(=O)[nH]c(=O)n2C)n1CCSc1nc2ccccc2[nH]1,1.4,.,-2.3,2.9,i,1.5,6.1,4.3,
CCc1ccc2nc(N(CCCN(C)C)C(=O)c3ccc(C(=O)c4ccccc4)cc3)sc2c1,5.7,.,-3.6,24.2,i,4.3,-3.9,0.8,
Cc1c(NC(=O)C2(c3ccc(Cl)cc3)CCCC2)c(=O)n(-c2ccccc2)n1C,2.4,4.9,-7.7,1.0,i,4.6,-2.0,1.3,

# Going on with the list.
SMILES,Yeast UUG start,Env fusion inh,PABP FP inh,CSC inhib,Rce1 inh,eIF4H inh,MT1-MMP act inh,MT1-MMP act inh RFP,others
Cc1c(C(=O)NCc2c(F)cc(F)cc2F)oc2ccc(S(=O)(=O)N3CCOCC3)cc12,-5.2,14.0,-2.8,-3.5,i,-7.4,2.0,-0.8,
COc1ccc(N2CCN(C(=O)C3Cc4ccccc4CN3C(=O)c3ccco3)CC2)cc1 (stereo unspecified),11.8,-36.9,.,-4.4,.,.,7.1,-4.1,
CCN(C(=O)COc1cccc(-n2cnnn2)c1)C1CCS(=O)(=O)C1 (stereo unspecified),-8.9,-10.3,.,-3.2,.,.,2.2,2.6,
CCOC(=O)CSC1=Nc2ccccc2C2=NC(CC(=O)NCc3ccc4c(c3)OCO4)C(=O)N12 (stereo unspecified),-9.9,-391.6,5.1,-13.8,.,-0.9,-2.9,2.4,
CCOC(=O)C1C2C=CC3(CN(c4ccccc4CC)C(=O)C13)O2 (stereo unspecified),3.8,.,.,16.7,i,.,-3.2,2.9,
Nc1c(C(=O)c2cccs2)sc2nsc(SCCN3CCCCC3)c12,-10.6,-119.6,15.8,-5.4,i,47.9,-146.1,-3.8,
Cc1ccc(C(=O)CCC(=O)OCC(=O)NNC(=O)c2ccc([N+](=O)[O-])cc2)cc1,-12.0,-7.7,.,.,.,.,4.8,3.6,
O=C(CN(Cc1ccc(F)cc1)C(=O)CCC(=O)Nc1nccs1)NCc1ccc(F)cc1,-14.0,5.5,-2.4,-4.6,i,8.8,-3.4,-1.3,
O=Cc1ccc(-c2cccc(C(=O)O)c2)o1,-3.0,-17.2,-0.1,-4.4,i,23.8,-2.8,1.4,
Cc1cccc2nc(CSc3nc4ccc([N+](=O)[O-])cc4[nH]3)c(Br)n12,-11.8,.,2.2,6.7,i,14.0,-0.5,-0.5,
Cc1ccc2nsnc2c1S(=O)(=O)N1CCN(C)CC1,-20.8,-3.0,3.1,-3.4,i,-8.0,-1.9,1.4,
NC(=O)c1cnn(-c2cccc(Cl)c2)c1N,.,13.5,-4.9,-8.9,i,1.6,5.7,4.0,
O=C(Cn1cncn1)c1ccccc1,-13.4,5.6,13.5,-12.0,i,15.3,9.1,6.8,
COc1ccc(N(C)S(=O)(=O)c2ccc3c(c2)NC(=O)CO3)c(OC)c1,-18.0,6.8,3.3,.,i,-1.9,0.1,6.6,
CCN(CC)S(=O)(=O)c1cc(C)ccc1NC(=S)Nc1cccnc1,-1.9,27.7,1.8,23.4,i,-7.2,0.2,-11.7,
O=C(NCCCn1ccnc1)C(=O)NC1CCCCC1,.,2.2,-3.4,-5.6,i,4.3,-1.6,-1.2,
O=C(NC1CCN(C(=O)Nc2ccccc2)CC1)C1CCCCC1,-22.0,-36.5,4.8,0.6,i,-3.5,4.5,0.4,
O=C(NCc1ccc[n+](CCCCS(=O)(=O)[O-])c1)c1ccc(OC(F)F)cc1,.,.,-6.8,3.9,i,3.0,.,.,
C[C@@H](NC(=O)[C@@H]1Cc2ccccc2CN1)C(=O)Nc1ccc2c(c1)OCO2,-8.2,.,15.7,9.5,i,4.0,6.6,6.6,
Cc1cccc(N(C(=O)Nc2ccc(Cl)cc2)C2=NCC(C)S2)n1 (stereo unspecified),-1.9,-2.0,-11.2,30.0,i,7.3,4.6,4.0,
Cc1cccc(CC(=O)N2CCC(N3CCC(C(=O)N4CCOCC4)CC3)CC2)c1,-6.1,-4.3,-4.4,-13.3,i,5.9,1.3,-1.2,
CC(C)(C)NC(=O)Cn1cnc2cc([N+](=O)[O-])ccc2c1=O,.,21.0,-5.4,-1.9,i,3.1,1.6,2.7,
Cc1cc(NC(=S)N(CCN2CCOCC2)Cc2ccccc2F)ccc1Cl,-12.7,16.0,-2.1,9.3,i,4.5,-0.9,-0.1,
Cc1ccc(S(=O)(=O)N2CCC3(CC2)OCCO3)s1,0.3,-4.1,12.4,-13.4,i,-4.6,0.9,3.3,
CC(=O)Nc1ccc(NC(=O)C(C)OC(=O)CC2CCCC2)cc1 (stereo unspecified),.,-0.5,.,-7.8,i,.,1.5,-0.3,

# 4 compounds picked at random from those above, as already listed:
SMILES,Yeast UUG start,Env fusion inh,PABP FP inh,CSC inhib,Rce1 inh,eIF4H inh,MT1-MMP act inh,MT1-MMP act inh RFP,others
CCO[C@@H]1OC(C(N)=O)=C[C@H](c2coc3ccccc3c2=O)[C@H]1CCCO,-16.6,8.7,-12.8,-4.2,i,-8.8,11.9,6.0,
CC(=O)Nc1ccc(C(=O)CSc2nnc(-c3ccc(O)cc3)n2CC2CCCO2)cc1 (stereo unspecified),12.5,.,-3.6,-3.0,i,1.1,15.1,-2.0,
CSc1nc2ccccc2cc1/C=C(\C#N)c1cccc(C)c1,-14.3,.,9.7,-8.5,i,11.2,-6.9,-15.2,
O=C(N/N=C/c1ccc2c(c1)OCCO2)c1ccncc1,-5.1,2.1,1.7,-22.2,i,-16.7,2.1,1.8,

# Carrying on:
SMILES,Yeast UUG start,Env fusion inh,PABP FP inh,CSC inhib,Rce1 inh,eIF4H inh,MT1-MMP act inh,MT1-MMP act inh RFP,others
CC(=O)c1c(-c2ccccc2)c2ccccc2[nH]c1=O,.,4.4,-8.6,4.0,i,-8.1,-3.6,-5.4,
CCOC(=O)/C=C/C(=O)N1CCc2ccccc21,-9.8,-58.7,2.7,5.5,i,-8.5,-2.9,-6.2,
Cc1ccc(S(=O)(=O)N(CC(=O)NCc2cccnc2)C2CCCCC2)cc1,.,-7.2,-8.0,-14.7,i,-6.1,-2.8,3.4,
O=c1oc2cccnc2n1CCS(=O)(=O)c1ccc(F)cc1,.,14.3,-4.5,3.5,i,3.3,-2.2,2.0,
CCC(C)(C)NC(=O)/C=C/c1ccccc1[N+](=O)[O-],.,-9.0,-2.4,-17.1,i,-0.3,7.0,-9.9,
O=C(c1cccc(OC2CCN(C3CCCC3)CC2)c1)N1CCCCCCC1,.,2.1,11.1,28.7,i,6.4,1.5,3.3,
C[C@H](CO)N1C[C@H](C)[C@@H](CN(C)C(=O)NC2CCCCC2)Oc2ccc(NS(C)(=O)=O)cc2C1=O,-12.9&-12.9,-7.1,.,.,.,.,-2.9,-1.2,
CC(C)(c1ccccc1)c1ccc(OCC(O)CNC2CCN(Cc3ccccc3)CC2)cc1 (stereo unspecified),-14.9,27.0,-9.4,106.5*,i,4.4,-41.3,-26.3,
CCOC(=O)c1sc(NC(=O)c2ccco2)c(C#N)c1C,-8.9,-28.9,-7.9,14.1,i,-2.6,-190.8,-4.2,
COc1ccc(C(=O)NNC(=O)OC(C)(C)C)cc1,-22.1,-16.1,4.8,14.7,i,-4.7,-2.6,0.4,
Cc1cc(C(=O)OCC(=O)Nc2cccc(S(=O)(=O)N(C)C)c2)c2ccccc2n1,.,8.9,-9.5,-0.2,i,1.7,-0.7,-2.1,
Cc1cccc(C)c1NC(=S)NC(=O)c1ccccc1F,.,3.6,3.9,2.0,i,1.0,-2.9,-1.0,
Oc1ccc2ccccc2c1CN1CCCCC1,-5.7,-6.8,.,.,.,.,3.1,2.7,
CC1CCc2c(cnc3ncnn23)C1 (stereo unspecified),2.7,6.1,0.0,-4.8,i,-3.6,-4.4,-1.6,

# Screens as filed in PubChem BioAssay.
